Source: PubChem (several laboratories)
Sa ugtP lethal = kills S. aureus RN4220 lacking UgtP | S. aureus RN4220 ugtP deletion, OD600 growth, 16 h; some inactives read as strong as hits | growth inhibition, % (concentration not given with the values) | hit rate 0.54% among 330,000;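 active = z-score under -3 and OD600 up to 0.15 on both plates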;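 also: plate controls were untreated wells for no effect and antibiotic for full effect; wells of about 80 µL received 100 nL stock; the first replicate is given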
BJeLR viability = kills HRASV12-expressing BJeLR cells | BJeLR (HRASV12) viability, CellTiter-Glo ATP luminescence, 48 h; reference of the scale not given here | inhibition, % (concentration not given with the values) | hit rate 0.17% among 300,000 | AID 1554;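 active = replicate mean above 50%; inconclusive = above 50% but judged a plate artefact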;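 also: 50 nL library stock added to about 25 µL; numbers are from one replicate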
Bead autofluor = compound fluorescence in toxin protease inhibitor counterscreen; hit rate 3.1% among 360,000; compound autofluorescence counterscreen, microsphere flow cytometry; active compounds read high; fluorescence intensity (no concentration beside the values);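 active = at least 3 SD above the mean of all compounds, about 16000 in these data; inconclusive = too few beads counted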;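 also: 100 nL of 1 mM stock went into each well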
Mtb hypoxia inh = inhibitors of hypoxia-regulated fluorescent reporter in Mycobacterium tuberculosis. hit rate 0.1% among 300,000. M. tuberculosis hypoxia-regulated fluorescent reporter, fluorescence. fluorescence inhibition, % (no concentration beside the values);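 active = 35 to 45% if threefold the growth effect, above 45% if 1.5-fold the growth effect; inactive = the rest, general growth blockers included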;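 also: wells of about 50 µL received 100 nL stock; 0% = vehicle wells and 100% = reference inhibitor wells; whole bacteria with a GFP reporter of the hypoxia response; strong numbers were not always called active; many hits fall short of the cut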
Sa RN4220 lethal = kills Staphylococcus aureus RN4220; S. aureus RN4220 growth, OD600, 16 h; inhibition, % (no concentration beside the values); hit rate 0.33% among 330,000; AID 1259311;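 active = z-score of -3 or lower and OD600 up to 0.18 on both plates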;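 also: plate controls were untreated cells for no effect and reference antibiotic for full effect; stock transfer was 100 nL into about 80 µL; one replicate is shown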
PrP 5UTR inh = inhibition of PrP 5' UTR reporter expression | hit rate 0.35% among 340,000 | inhibition, % (concentration not given with the values) | cell-based PrP 5' UTR mRNA reporter, plate reader;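 active = every replicate at 50% or more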;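 also: 0 = median of the neutral control wells; tested in H4 reporter cells; numbers are from one replicate; inactives centre near -14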
Mtb hypoxia inh growth = also measured in Mtb hypoxia inh; calls as there; growth inhibition, %; measured here: M. tuberculosis growth (absorbance);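 0% = vehicle and 100% = reference antibiotic; read after six days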
Starred values were filed as active, the others as inactive; ? = inconclusive; . = no result given.

[1] CC(=O)Oc1ccc2c(c1)O/C(=C\c1ccncc1)C2=O
[2] N#Cc1c(-c2cccc(Cl)c2)[nH]c(=S)[nH]c1=O
[3] O=C(CN1CCOCC1)NNC(=S)Nc1ccc(Cl)cc1
[4] NNC(=O)CCN1CCN(Cc2ccccc2)CC1
[5] Cc1ccc(CN(C(=O)c2c(F)cccc2F)C2CC(C)(C)NC(C)(C)C2)o1
[6] Cc1ccc(S(=O)(=O)N2CCC(=O)N(CCOC(=O)Nc3ccc(F)cc3)CC2)cc1
[7] Cc1cc(=O)oc(C)c1C(=O)NC1CC(C)(C)NC(C)(C)C1
[8] Cc1cc(NC(=O)CSc2nnc(-c3ccco3)n2C)no1
Assay by compound,1,2,3,4,5,6,7,8
Sa ugtP lethal,.,-1,6,0,4,-14,3,-2
BJeLR viability,-11,-5,-7,-20,-14,1,-5,.
Bead autofluor,3367,5027,4397,4768,11385,3495,2652,3663
Mtb hypoxia inh,.,11,-3,-2,6,2,12,-7
Mtb hypoxia inh growth,.,-3,7,5,6,-1,1,0
Sa RN4220 lethal,.,5.3,0.9,2.6,2.6,6.8,-7.2,1.5
PrP 5UTR inh,-3,-15,-24,-5,-14,-10,-11,88*

[9] O=c1c2ccccc2nc(/C=C/c2ccccc2)n1CCCO
[10] CCNC(=O)Nc1ccccc1C(=O)OC
[11] COC(=O)c1ccc(C(NC(=O)OCc2ccccc2)C(F)=CC(C)C(=O)NCc2ccc(OC)c(OC)c2)cc1 (configuration not stated)
[12] Cc1cc(Cl)c(S(=O)(=O)NCc2cccnc2)cc1OCC(=O)NC1CCCCC1
[13] CS(=O)(=O)c1ccccc1-c1nnc(NC(=O)c2ccc(S(=O)(=O)N3CCCC3)cc2)o1
[14] Fc1cccc(CNCc2ccc3c(c2)OCO3)c1
[15] Cc1ncc(CC(=O)n2cc(C(=O)c3cc(Cl)ccc3O)cn2)s1
[16] Cc1cc([N+](=O)[O-])nn1CCCC(=O)Nc1cccnc1Cl
Assay by compound,9,10,11,12,13,14,15,16
Sa ugtP lethal,0,0,10,-1,-2,14,6,5
BJeLR viability,-7,-3,.,6,-2,-1,-2,-10
Bead autofluor,3213,4528,.,10975,4305,.,3719,4551
Mtb hypoxia inh,5,-11,19,9,7,-4,17,1
Mtb hypoxia inh growth,4,3,19,19,6,-5,-29,2
Sa RN4220 lethal,12,2.4,2.0,2.0,9.3,3.0,-1.2,4.6
PrP 5UTR inh,0,-14,.,-13,-15,-14,-14,-16

[17] CC#CC(=O)N1CCC(CCc2ccccc2)(C(=O)OCC)CC1
[18] Cc1c(C(=O)Nc2nccs2)sc2nc(-c3cccs3)cc(C(F)(F)F)c12
[19] Cc1nn(C(=O)c2cc([N+](=O)[O-])ccc2Cl)c(C)c1Br
[20] COc1cccc(-n2c(Cc3cc(=O)[nH]c(=O)[nH]3)nnc2SCC(=O)N2CCC(C)CC2)c1
[21] Cc1nn(-c2ccccc2)c(C)c1P(=O)(c1ccccc1)N(C)C (configuration not stated)
[22] CCc1ccc(-n2c(=S)sc3c(=O)n(-c4ccccc4C)c(SCC(=O)O)nc32)cc1
[23] COc1ccc(/C(C)=N/NC(=O)CNC(=O)c2cccnc2)cc1OC
[24] CC(=O)C1=C(O)CCCC1=NCc1nc2ccccc2[nH]1
Assay by compound,17,18,19,20,21,22,23,24
Sa ugtP lethal,-3,-2,6,.,5,20,.,3
BJeLR viability,5,-6,18,-14,-1,-4,-2,-12
Bead autofluor,4803,14857,3982,3696,6495,3137,2913,4360
Mtb hypoxia inh,2,-5,0,.,8,-1,.,10
Mtb hypoxia inh growth,10,2,2,.,-1,-3,.,5
Sa RN4220 lethal,5.4,26,1.2,.,2.3,12,.,3.0
PrP 5UTR inh,-14,-7,-4,-26,-16,1,-5,-21

[25] CC(C)(NC(=O)c1cc(Cl)c2ccccc2c1O)C(=O)O
[26] O=[N+]([O-])c1cccc(C=NN2CCN(Cc3ccccc3)CC2)c1
[27] O=C(CC(c1ccc(F)cc1)c1ccco1)Nc1nccs1 (configuration not stated)
[28] CCOC(=O)C1CCN(C(=O)Cc2ccc(OC)c(OC)c2)CC1
[29] O=C(Cc1cccs1)Nc1ccc(-c2nnn(CC(=O)N3CCOCC3)n2)cc1
[30] CCc1cc(-c2n[nH]c(=S)n2N)n(C)n1
[31] CCOC(=O)COc1c(C=O)cc(Br)cc1OC
[32] COCCn1c(-c2ccc(Cl)cc2)cnc1SCC(=O)NCCc1ccc(OC)c(OC)c1
Assay by compound,25,26,27,28,29,30,31,32
Sa ugtP lethal,3,9,4,7,-4,-2,4,10
BJeLR viability,4,.,-1,2,-10,-3,3,-3
Bead autofluor,2985,.,4985,3215,.,.,9871,2283
Mtb hypoxia inh,8,3,12,5,10,8,5,13
Mtb hypoxia inh growth,-3,2,4,0,8,11,8,-1
Sa RN4220 lethal,16,3.0,10,2.3,5.7,8.7,4.1,3.6
PrP 5UTR inh,.,.,-9,-10,.,-16,-27,-14

An excerpt from above in order of heavy-atom count, low to high.
[30] CCc1cc(-c2n[nH]c(=S)n2N)n(C)n1
[31] CCOC(=O)COc1c(C=O)cc(Br)cc1OC
[24] CC(=O)C1=C(O)CCCC1=NCc1nc2ccccc2[nH]1
[27] O=C(CC(c1ccc(F)cc1)c1ccco1)Nc1nccs1 (configuration not stated)
[28] CCOC(=O)C1CCN(C(=O)Cc2ccc(OC)c(OC)c2)CC1
[23] COc1ccc(/C(C)=N/NC(=O)CNC(=O)c2cccnc2)cc1OC
[29] O=C(Cc1cccs1)Nc1ccc(-c2nnn(CC(=O)N3CCOCC3)n2)cc1
[22] CCc1ccc(-n2c(=S)sc3c(=O)n(-c4ccccc4C)c(SCC(=O)O)nc32)cc1
[32] COCCn1c(-c2ccc(Cl)cc2)cnc1SCC(=O)NCCc1ccc(OC)c(OC)c1
Assay by compound,30,31,24,27,28,23,29,22,32
Sa ugtP lethal,-2,4,3,4,7,.,-4,20,10
BJeLR viability,-3,3,-12,-1,2,-2,-10,-4,-3
Bead autofluor,.,9871,4360,4985,3215,2913,.,3137,2283
Mtb hypoxia inh,8,5,10,12,5,.,10,-1,13
Mtb hypoxia inh growth,11,8,5,4,0,.,8,-3,-1
Sa RN4220 lethal,8.7,4.1,3.0,10,2.3,.,5.7,12,3.6
PrP 5UTR inh,-16,-27,-21,-9,-10,-5,.,1,-14

Going on with the list:
[33] CSc1ccc(C(=S)N2CCN(C)CC2)cc1
[34] CCCCn1c(=O)c(C(=O)Nc2cccc(C)c2)c(O)c2ccccc21
[35] Clc1ccc(Cn2ncc3c(N4CCCCC4)ncnc32)c(Cl)c1
[36] CCOc1ccc(-c2nnc3sc(COc4ccc(C)cc4)nn23)cc1
[37] CCCN1CCC(=O)N([C@H](CSc2ccc(C)cc2)Cc2ccccc2)CC1
[38] ONC(=Nc1ccc(Cl)cc1)c1ccc(Cl)cc1
[39] COC(=O)C1=C(C(=O)OC)SC(=C2C(=S)C(C)(C)N(C(=O)C3CC3)c3ccccc32)S1
[40] O=C(Nc1cccc(C(=O)N2CCOCC2)c1)c1ccccc1
Assay by compound,33,34,35,36,37,38,39,40
Sa ugtP lethal,5,48,3,5,.,8,12,-8
BJeLR viability,-4,-6,1,-9,-12,-4,-6,-2
Bead autofluor,10696,4908,4962,3033,4561,24126*,8410,3663
Mtb hypoxia inh,15,9,.,.,.,15,8,1
Mtb hypoxia inh growth,4,-2,.,.,.,7,-1,1
Sa RN4220 lethal,5.6,7.3,-3.1,-1.8,.,-1.6,-1.0,6.2
PrP 5UTR inh,-29,-36,-3,-21,-13,-19,-7,-16

[41] Cc1ccc(C(=O)NCCCNC(=O)c2ccco2)cn1
[42] Cc1ccc(Oc2ccc(S(=O)(=O)Nc3ccc(C(=O)O)cc3)cc2)cc1
[43] CCN(C(=O)CSc1nc(C)c(C)c(C)n1)C1CCS(=O)(=O)C1 (configuration not stated)
[44] O=C(Cn1nnc(-c2ccccc2)n1)Nc1ccccc1N1CCOCC1
[45] CC(C)c1nc2ccccc2c2nnc(SCC(=O)NCc3ccco3)n12
[46] COC(=O)c1sccc1NC(=S)N1CCCCC1C (configuration not stated)
[47] O=C(/C=C/c1ccc([N+](=O)[O-])cc1)OCC(=O)N1CCCCCC1
[48] O=C1c2ccccc2C(=O)N1S(=O)(=O)c1ccccc1
Assay by compound,41,42,43,44,45,46,47,48
Sa ugtP lethal,2,29,10,2,0,8,-6,5
BJeLR viability,-5,.,.,-4,.,2,.,1
Bead autofluor,4000,3939,2658,6844,10913,9366,3635,5528
Mtb hypoxia inh,9,1,1,16,9,-8,-13,2
Mtb hypoxia inh growth,-4,6,1,4,10,3,0,0
Sa RN4220 lethal,1.5,-7.7,6.1,1.2,8.4,-1.0,-1.5,1.3
PrP 5UTR inh,-3,-21,-6,-12,1,4,-6,-66

[49] O=C(O)C1Nc2ccc(Br)cc2C2C=CCC12 (configuration not stated)
[50] CC(C)(C)c1ccc(C(=O)NCC(=O)OCCN2C(=O)c3ccccc3C2=O)cc1
[51] Cc1ccc2cc(CN(C(=O)c3ccco3)c3cccc(C)c3C)c(=O)[nH]c2c1
[52] CCNc1nc(NCC)nc(N/N=C/c2ccc(O)c(O)c2)n1
[53] CCNC(=S)N(CCN(C)C)Cc1cc2cc(OCC)ccc2[nH]c1=O
[54] Cn1c(N)c(C(=O)COC(=O)CNC(=O)c2ccccc2)c(=O)n(C)c1=O
[55] Brc1ccc(C=NNc2nc3ccccc3o2)cc1
[56] Cc1sc2ncnc(N3CCC(C(=O)Nc4ccc(C#N)cc4)CC3)c2c1C
Assay by compound,49,50,51,52,53,54,55,56
Sa ugtP lethal,-5,15,-2,.,1,5,1,0
BJeLR viability,-9,3,-2,7,-7,.,.,-3
Bead autofluor,.,?,5274,3899,4349,3726,.,?
Mtb hypoxia inh,13,13,9,.,0,9,1,8
Mtb hypoxia inh growth,9,-4,5,.,13,16,12,-1
Sa RN4220 lethal,22,1.9,7.7,.,-3.0,5.1,2.2,2.0
PrP 5UTR inh,43,-13,-23,-19,1,-9,.,-13

[57] COc1ccc(NC(=O)c2ccccc2SC)cc1
[58] O=C(NNC(=O)C1CCN(S(=O)(=O)c2ccc(Cl)cc2)CC1)c1ccc(S(=O)(=O)N2CCCCC2)cc1
[59] COc1cccc(-c2cc(C(=O)NC3CC3)c3ccccc3n2)c1
[60] CCCn1c(N)c(N(CCOC)C(=O)Cc2ccc(S(=O)(=O)N3CCOCC3)s2)c(=O)[nH]c1=O
[61] O=C(Nc1cc(Cl)ccc1Cl)N1CCCC1
[62] FC(F)(F)c1cnc(Oc2ccc(-c3nnco3)cc2)c(Cl)c1
[63] Clc1ccc2c(N/N=C/c3cccnc3)ccnc2c1
[64] Cc1ccc(C2=NN(S(C)(=O)=O)C(c3ccc4c(c3)OCO4)C2)cc1 (configuration not stated)
Assay by compound,57,58,59,60,61,62,63,64
Sa ugtP lethal,-1,8,-1,.,9,0,.,3
BJeLR viability,1,2,-8,-7,5,3,5,-12
Bead autofluor,2460,2079,5103,?,2463,3578,4909,8387
Mtb hypoxia inh,-5,10,0,.,1,8,.,8
Mtb hypoxia inh growth,-13,4,1,.,0,6,.,6
Sa RN4220 lethal,-4.1,7.1,-0.3,.,2.3,3.1,.,6.5
PrP 5UTR inh,-14,-22,-13,-11,-4,-31,-28,-161

[65] CC(Oc1ccc([N+](=O)[O-])cc1Cl)C(=O)Nc1ccc(C(N)=O)cc1 (configuration not stated)
[66] Cn1cccc1C(=O)NNC(=O)COc1ccc(Br)cc1
[67] OCC(Cl)CCl (configuration not stated)
[68] CN(C)CCCOC(=O)c1ccc(Cl)cc1
[69] CC(OC(=O)C(NC(=O)c1ccco1)C(C)C)C(=O)Nc1ncc(Cl)cc1Cl (configuration not stated)
Assay by compound,65,66,67,68,69
Sa ugtP lethal,-2,9,6,5,0
BJeLR viability,-3,-9,.,27,-1
Bead autofluor,3499,5982,5082,3917,2940
Mtb hypoxia inh,8,5,12,.,8
Mtb hypoxia inh growth,8,9,7,.,10
Sa RN4220 lethal,-0.3,2.6,5.0,0.5,-11
PrP 5UTR inh,-100,-18,-14,-6,-16
